VDR inh: vitamin D3 receptor (human) inhibition; Potency, µM, without a hit: max response, negative = inhibition, usual class: inhibitors; VDR-SRC2-3 peptide fluorescence polarization, 2 h; actives 0.93% (n = 400,000); AID 504847; P11473; active means well fitted inhibition curve with a large enough effect; inconclusive means small, poorly fitted or top-dose-only effect, or another doubt; inactive means no such curve, though single readings can be large or run the other way; further: series mostly up to about 120 µM
Target sequence (P11473 whole entry, looked up): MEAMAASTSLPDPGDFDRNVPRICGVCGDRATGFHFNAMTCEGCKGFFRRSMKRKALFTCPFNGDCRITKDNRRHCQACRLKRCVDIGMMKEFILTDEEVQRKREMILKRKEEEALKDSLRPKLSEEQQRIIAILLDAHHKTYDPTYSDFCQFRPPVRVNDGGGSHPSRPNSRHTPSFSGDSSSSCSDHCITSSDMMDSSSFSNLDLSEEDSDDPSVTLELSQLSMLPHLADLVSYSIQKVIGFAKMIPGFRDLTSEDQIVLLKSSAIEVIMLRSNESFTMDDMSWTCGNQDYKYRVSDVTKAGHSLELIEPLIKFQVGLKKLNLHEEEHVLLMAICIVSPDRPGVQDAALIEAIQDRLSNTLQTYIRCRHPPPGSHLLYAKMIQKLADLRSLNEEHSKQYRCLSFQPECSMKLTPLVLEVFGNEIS
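The screen uses fluorescence polarization to detect compounds that interfere with recruitment of the SRC2-3 coactivator peptide to VDR; plates are read after 2 h at room temperature.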
Numbers without * were called inactive; ? = inconclusive; & = joins results of further samples; ! = not confirmed by another sample. On the % scale 0 is the no-effect control and ±100 the full control effect; potency means the concentration at half of the fitted maximal effect. A portion of the library; rates above refer to the full screens.

SMILES	VDR inh
O=S(=O)(Oc1ccc(Cl)cc1)c1cccc2cccnc12	0%
c1ccc(-n2nnc(-c3nccs3)n2)cc1	-25%
CC(C)(C)C(=O)Nc1ccccc1C(=O)OCc1cc(=O)n2ccsc2n1	13%
Cc1n[nH]c(C)c1S(=O)(=O)N1CCCC(C(=O)NCC2COc3ccccc3O2)C1 (stereo not given)	5%
CCO[C@H]1OC(C(=O)NCc2ccccc2)=C[C@@H](c2ccc(C(F)(F)F)cc2)[C@@H]1CCCO	-5%
COc1ccc2oc(C(=O)Nc3nc4ccc(S(C)(=O)=O)cc4s3)c(C)c2c1	-3%
CCCc1cc(=O)oc2c(C)c3occ(C)c3cc12	-3%
CSCCC(NC(=O)c1ccc([N+](=O)[O-])cc1Cl)C(=O)OCC(=O)C12CC3CC(CC(C3)C1)C2 (stereo not given)	-9%
COc1ccc(OC)c(CCNC(=O)Cn2cccc2C(=O)c2ccccc2C)c1	-15%
COCC1CCN(C(=O)C2CCC(=O)N(Cc3cccc(C(F)(F)F)c3)C2)CC1 (stereo not given)	-8%
O=C(COc1ccc(Br)cc1)OCc1nnc(-c2ccccc2)o1	11%
CCCc1c(C(=O)N/N=C/c2cccs2)nnn1-c1nonc1N	?
Cc1cc(NC(=O)CSc2nnc(COc3ccccc3)o2)no1	-10%
CCCCOc1ccc(-c2nn(-c3ccccc3)cc2C2NC(=O)NC(C)=C2C(=O)OC)cc1 (stereo not given)	2%
CSc1ccc(S(=O)(=O)N2CCC(C(=O)NCc3ccccn3)CC2)cc1	4%
CC(C)C[C@@H](C(=O)N[C@@H](Cc1c[nH]c2ccccc12)C(N)=O)N1C[C@]2(CCCN2C(=O)[C@H](Cc2ccccc2)NC(=O)[C@H](Cc2ccccc2)NC(=O)[C@H](CCC(N)=O)NC(=O)[C@H](CCC(N)=O)NC(=O)[C@@H]2CCCN2C(=O)[C@H](CCCCN)NC(=O)[C@@H]2CCCN2C(=O)[C@@H](N)CCCNC(=N)N)CC1=O	0%
Cc1c(NC(=O)c2ccccc2NC(=O)c2ccccc2)cccc1C(=O)O	-8%
Cc1ccc(NC(=O)CSc2nc(N)c(-c3ccccc3)c(=O)[nH]2)cc1Cl	4%
COc1ccc(OCC(=O)Nc2cc(-c3ccccc3F)nn2-c2ccccc2)cc1	11%
O=C(c1ccco1)N1CCN(Cc2ccc(Cl)cc2)CC1	4%
CCOC(=O)Nc1nn(-c2ccc(C)cc2)c(=O)c(C#N)c1C	2%
COc1cccc(OCCCN2CCN(S(=O)(=O)c3ccc(NC(C)=O)cc3)CC2)c1	-14%
Cc1ccn2c(=O)nc(SCC(=O)Nc3ccc4c(c3)OCO4)nc2c1	3%
N#Cc1ccccc1S(=O)(=O)N1CCN(C(=O)C2CCCCC2)CC1	?
CN(C)C(=O)C(OC(=O)c1ccc2ccccc2n1)c1ccccc1 (stereo not given)	-1%
O=S(=O)(Cc1nnnn1-c1ccc(Br)cc1)c1ccc(F)cc1	-3%
O=C(Cc1cccc(C(F)(F)F)c1)NCc1ccc(Cl)cc1	-14%
CCCCC1C(=O)N(c2ccccc2)N(c2ccc(O)cc2)C1=O (stereo not given)	11µM*!
CN1C(=O)Cc2cc(S(=O)(=O)N3CCN(c4cccc(C(F)(F)F)c4)CC3)ccc21	6%&11%
O=C(N1CCCCC1)N1CCN(C(=O)N(c2ccccc2)c2ccccc2)CC1	-8%
O=S(=O)(Nc1ccc(N2CCCCC2)cc1)c1ccccc1F	2%
COC1=C(N2CCOCC2)C(=O)c2ccccc2C1=O	-13%
O=C(CCc1ccccc1)NC(=S)Nc1ccc2c(c1)C(=O)OC2	-4%
CCN1C(=O)c2cccc3c(S(=O)(=O)N4CCNCC4)ccc1c23	22%
N/C(=N\N=C/c1ccc(Br)cc1)N/N=C\c1ccc(Br)cc1	-11%
Cc1cc2oc(C(=O)N3CCN(Cc4ccccc4)CC3)c(C)c2cc1C	8%
O=C(NCCc1cccc(C(F)(F)F)c1)C1CCC(=O)N(Cc2ccc(Cl)cc2)C1 (stereo not given)	1%
CCCCNC(=O)CSc1nc2ccccc2n1S(=O)(=O)c1ccc(Cl)cc1	3%
CCOC(=O)c1oc2ccc(Cl)cc2c1NC(C)=O	-11%
CCCn1c2ccccc2c2cnn(CC(=O)NC3CCC(C)CC3)c(=O)c21 (stereo not given)	-6%
Cc1ccc(-n2c(SCC(=O)N3CCOCC3)nc(O)cc2=O)cc1	-3%
O=C(NCC1(N2CCCCC2)CCCCC1)c1ccc(NS(=O)(=O)c2ccccc2)cc1	9%
O=Cc1cn(-c2ccccc2)nc1-c1ccccc1	-18%
S=C(NCCc1ccccc1)NCc1cccc(Cl)c1	6%
C[C@@]12C(=O)Nc3cc(F)c(F)cc3C(=O)N1[C@H]1c3ccccc3OC[C@@H]1[C@@H]2c1ccccc1	2%
O=C(/C=C/c1ccco1)NC(=S)Nc1cccc([N+](=O)[O-])c1	-14%
CCOC(=O)Cc1cc(=O)n2[nH]c(C)c(-c3ccc(Cl)cc3)c2n1	32%
CCOc1ccc(S(=O)(=O)N2CCOCC2)cc1NC(=O)CN1C(=O)NC(C)(c2ccc(C)cc2)C1=O (stereo not given)	3%
CN1CCN(c2ccc(NC(=O)c3ccccc3Br)cc2)CC1	3%
COc1cc2c(cc1O)[C@@H]1Cc3cc(OC)c(OC)cc3C(C2)N1C	-13%
COc1ccc2nc(NC(=O)C3CC(=O)N(c4ccc5c(c4)OCCO5)C3)sc2c1 (stereo not given)	-26%
COC(=O)c1cc(NC(=O)CC2SC(=Nc3ccccc3)N(CCc3c[nH]c4ccccc34)C2=O)cc(C(=O)OC)c1 (stereo not given)	7%
Cc1nc2sc(C(c3ccco3)N3CCN(c4cccc(Cl)c4)CC3)c(O)n2n1 (stereo not given)	5%
COc1ccc(C(=O)Nc2c(N)nc(SCC(=O)N3CCCCCC3)[nH]c2=O)cc1OC	1%
Cc1noc(C)c1COC(=O)CCc1nc2ccccc2s1	-16%
CCc1ccc(Oc2nc([N+](=O)[O-])nn2C)cc1	-19%
COc1cc(C(=O)N[C@H](C(=O)NC(C)C23CC4CC(CC(C4)C2)C3)C(C)C)cc(OC)c1OC (stereo not given in full)	9%
O=C(COC(=O)CCNS(=O)(=O)c1ccccc1)NC(=O)c1ccccc1	9%
CCCCc1cc(=O)oc2cc(O)cc(O)c12	12%
C=CCn1c(=N)n(CC(=O)OCC)c2ccccc21	-16%
The listing continues.
SMILES	VDR inh
Cc1ccc2nc3c(cc(S(=O)(=O)c4ccccc4)c(=N)n3C3CCCC3)c(=O)n2c1	2%
COc1cccc(CNC(=O)CCSCc2ccccc2F)c1	5%
COc1ccc(CCN2C(=O)CC(NCc3ccc4c(c3)OCO4)C2=O)cc1OC (stereo not given)	4%
C=C(C)COc1ccc2c3c(c(=O)oc2c1OCC(=C)C)CCC3	12%
CCOC(=O)c1ccc(CSc2nncn2N)o1	17%
CCOc1ccc(S(=O)(=O)NCCC(=O)NCC(C)(C)N2CCOCC2)cc1	-2%
COc1cccc(CNc2ccc(F)c(Cl)c2)c1	-11%
Cc1ccccc1OCC(=O)NNC(=O)c1ccoc1C	-10%
CC(=O)Nc1ccc(NC(=O)CS(=O)(=O)c2cn(CC(=O)N3CCCC3)c3ccccc23)cc1	-10%
CCOc1ccccc1CN1CCN(C/C=C/c2ccc(OC)cc2)CC1CCO (stereo not given)	-11%
O=C(CN1c2cccc3cccc(c23)S1(=O)=O)Nc1ccccc1Br	0%
CC(Sc1ncc(S(=O)(=O)c2ccc(C(C)C)cc2)c(N)n1)C(=O)Nc1ccccc1 (stereo not given)	4%
CN(CC(=O)OCC(=O)Nc1ccccc1)S(=O)(=O)c1ccc(Cl)cc1	10%
N=C1C(=O)OCC1c1ccccc1NC(=O)CN1CCCCC1 (stereo not given)	14%
O=C(NC(=S)N1CCN(c2ccccn2)CC1)c1ccco1	-10%
O=C(Oc1ccc([N+](=O)[O-])cc1)c1cncc(Br)c1	?
CC(=O)c1c(C)n(-c2ccc(C)cc2)c2ccc(OC(=O)COc3ccccc3)cc12	-28%
O=C(NC1CCCCC1)N1CCC(c2nc3ccc(Cl)cc3[nH]2)CC1	5%
CCS(=O)(=O)N1CCC(C(=O)Nc2ccccc2OC)CC1	-14%
O=C(NCCc1nnc2ccc(SCC(=O)N3CCOCC3)nn12)c1ccccc1	-12%
Cn1c(-c2ccccc2)c(C=O)c2ccccc21	-18%
Cc1ccc(S(=O)(=O)N2CCN(c3nc(-c4cnccn4)nc4ccccc34)CC2)cc1	-8%
CCOC(=O)C1CCCN(C(=S)Nc2ccc(OC)cc2)C1 (stereo not given)	-13%
CCc1ccc(C2C(C(C)=O)=C(C(=O)OC)Nc3nnnn32)cc1 (stereo not given)	-5%
CCSc1nc2sc3c(c2c(=O)n1-c1ccc(C)c(Cl)c1)CCN(C(C)=O)C3	-19%
S=C(NCCCN1CCOCC1)Nc1ccc(-c2nc3ccccc3[nH]2)cc1	-15%
O=C(CSc1nccn1Cc1ccc(F)cc1)NCc1ccccc1	9%
Cc1ccc(-c2nnc(N3CCN(c4ccccn4)CC3)c3ccccc23)cc1	-1%
COc1ccc(-c2nc3ccccc3s2)cc1NC(=O)c1ccc(F)cc1	-1%
CN1CC(c2ccccc2)C2(SC(=S)N(Cc3ccco3)C2=O)C12C(=O)Nc1ccccc12 (stereo not given)	-4%
Cc1cc(Cl)cc2sc(=S)[nH]c12	?
O=[N+]([O-])c1cc(NS(=O)(=O)c2ccc(Cl)nc2)ccc1Cl	-5%
Cc1ccc(OCCn2c(CCNC(=O)C(C)C)nc3ccccc32)cc1	9%
CC(C)C[C@H]1CNC(=S)N1CC1CCCN1C[C@H](CC(C)C)N1C[C@H](CC(C)C)N(CCc2ccccc2)C1=S (stereo not given in full)	-6%
O=C(c1ccco1)N1CCc2[nH]nc(-c3ccc(Cl)cc3)c2C1	5%
CSCCC(NC(=O)COc1ccccc1)C(=O)N(C)CC(=O)Nc1ccc(Cl)cc1 (stereo not given)	-8%
Cc1ccc(C2=Nc3ccccc3N=C(c3ccc(F)cc3)C2)c(O)c1	4%
CCSc1nc2c(c(=O)[nH]c(=O)n2C)n1CC(O)COc1ccccc1 (stereo not given)	-14%
CN(Cc1nc2ccccc2n1C)C(=O)c1ccco1	4%
O=C(NCCCCCCNC(=O)c1ccncc1)c1ccncc1	-12%

Reprinted at random: seven records from the list.
SMILES	VDR inh
Cc1ccc(C2=Nc3ccccc3N=C(c3ccc(F)cc3)C2)c(O)c1	4%
Cc1ccc(OCCn2c(CCNC(=O)C(C)C)nc3ccccc32)cc1	9%
S=C(NCCCN1CCOCC1)Nc1ccc(-c2nc3ccccc3[nH]2)cc1	-15%
Cc1ccc(S(=O)(=O)N2CCN(c3nc(-c4cnccn4)nc4ccccc34)CC2)cc1	-8%
O=C(CSc1nccn1Cc1ccc(F)cc1)NCc1ccccc1	9%
Cc1cc(Cl)cc2sc(=S)[nH]c12	?
CSCCC(NC(=O)COc1ccccc1)C(=O)N(C)CC(=O)Nc1ccc(Cl)cc1 (stereo not given)	-8%

Remaining list, next part.
SMILES	VDR inh
Cc1ccc(/C([O-])=C(/C(=S)NCc2ccccc2)[n+]2cccc(CO)c2)cc1[N+](=O)[O-]	-11%
C(=N\N1CCN(Cc2cccc3ccccc23)CC1)/c1cccs1	19%
CCOC(=O)c1ccc(NC(=O)c2c(-c3c(F)cccc3Cl)noc2C)cc1	12%
COc1ccccc1C(=O)N1CCNC(=O)C1CC(=O)Nc1cccc(C)c1 (stereo not given)	-8%
NS(=O)(=O)c1ccc(NC(=S)N2CCN(c3cccc(Cl)c3)CC2)cc1	-26%
NC(=O)C1CCN(c2nc(-c3ccc4ccccc4c3)cs2)CC1	-28%
CCN(CC(=O)NCc1ccc(F)cc1)C(=O)CN1CCN(c2ccccc2OC)CC1	-23%
COc1cc(C(=O)NNC(=O)c2ccc3ccccc3n2)cc(OC)c1OC	1%
COc1ccc(CCN(C)C(=O)CCNS(=O)(=O)c2ccccc2C(F)(F)F)cc1OC	-7%
COc1cccc(COc2ccc3c(C)c(Cc4ccccc4)c(=O)oc3c2)c1	5%
COc1ccc(CCNC(=O)CCOc2ccc(C(C)(C)C)cc2)cc1OC	12%
COc1ccc(C2=NOC(C(=O)NCc3ccccn3)C2)cc1 (stereo not given)	-5%
COc1ccccc1N1CC(C(=O)NCC2COc3ccccc3O2)CC1=O (stereo not given)	-9%
CCC(=O)Nc1sc2c(c1C(N)=O)CCC2	1%
CCN1CCN(CC2CC3C=CC2C3)CC1 (stereo not given)	-17%
CCc1ccc(NC(=O)C2CCN(S(=O)(=O)c3c(C)noc3/C=C/c3ccco3)CC2)cc1	?
CC(C)Oc1ccc(CCC(=O)NNC(=S)Nc2ccccc2)cc1	0%
Cc1ccc(C(C)C)cc1S(=O)(=O)Nc1ccncc1	-29%
Cc1ccc(SCC(=O)Nc2ccc3c(c2)OCCO3)cc1	0%
COc1ccc(O)c(C(=O)c2cnc3c(c2)c(=O)[nH]c(=O)n3C)c1	-4%
Cc1cc(=O)[nH]c2ccc(Cl)cc12	-23%

Molecules listed so far containing a nitro group on carbon (6):
SMILES	VDR inh
CSCCC(NC(=O)c1ccc([N+](=O)[O-])cc1Cl)C(=O)OCC(=O)C12CC3CC(CC(C3)C1)C2 (stereo not given)	-9%
O=C(/C=C/c1ccco1)NC(=S)Nc1cccc([N+](=O)[O-])c1	-14%
CCc1ccc(Oc2nc([N+](=O)[O-])nn2C)cc1	-19%
O=C(Oc1ccc([N+](=O)[O-])cc1)c1cncc(Br)c1	?
O=[N+]([O-])c1cc(NS(=O)(=O)c2ccc(Cl)nc2)ccc1Cl	-5%
Cc1ccc(/C([O-])=C(/C(=S)NCc2ccccc2)[n+]2cccc(CO)c2)cc1[N+](=O)[O-]	-11%
